Screening results (PubChem)
StopGo reporter: FMDV 2A StopGo reporter, luciferase signal. human cells with a luciferase reporter of 2A StopGo recoding; control for the full effect not named in the record. Potency, µM (titrated, usually from 57.9 µM), for the others: at the highest dose signal change, negative = less light. 410,000 tested, 1.2% active; active = well fitted falling curve with a large enough effect; inconclusive = small, poorly fitted or top-dose-only effect; inactive = no such curve, though single readings can be large or run the other way; tested in HEK293T cells; also: % is scaled to controls: 0 for no effect and ±100 for the full control effect; nearly all actives have a fitted effect of over 45% in size; luciferase light after 4 h
Marburg entry inh: Marburg virus entry inhibition; Potency, µM (series often up to 37.8 µM), inactives show top-dose activity change, negative = inhibition, usual class: inhibitors; Marburg virus pseudotyped entry inhibition, cell reporter; control for the full effect not named in the record; about a third of the inactives were read at about 46 µM; 300,000 tested, 1.8% active; AID 540276; active = well fitted inhibition curve with a large enough effect; inconclusive = small, poorly fitted or top-dose-only effect, or effect the other way; inactive = flat fitted curve, though single readings scatter; tested in HEK293 cells; about a fifth of its hits are not listed in these tables; also: % is scaled to controls: 0 for no effect and ±100 for the full control effect; luciferase read-out
Cruzain Triton: blocks cruzain activity in presence of Triton detergent; P25779; purified cruzain, Z-FR-AMC fluorescence, 0.01% Triton; Potency, µM, for the others: max response, negative = inhibition, actives largely listed as inhibitors; 200,000 tested, 0.43% active; AID 1478; active = well fitted curve in the direction sought with a large enough effect; inconclusive = small, poorly fitted or top-dose-only effect, or another doubt; inactive = no such curve, though single readings can be large; an effect the other way counts as inactive or inconclusive;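 also: plate controls were neutral wells for no effect and buffer without enzyme for full effect; nearly all actives have a fitted effect of over 40% in size; top concentration of the series not given in the record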
Target sequence (P25779 123-467 limits assumed): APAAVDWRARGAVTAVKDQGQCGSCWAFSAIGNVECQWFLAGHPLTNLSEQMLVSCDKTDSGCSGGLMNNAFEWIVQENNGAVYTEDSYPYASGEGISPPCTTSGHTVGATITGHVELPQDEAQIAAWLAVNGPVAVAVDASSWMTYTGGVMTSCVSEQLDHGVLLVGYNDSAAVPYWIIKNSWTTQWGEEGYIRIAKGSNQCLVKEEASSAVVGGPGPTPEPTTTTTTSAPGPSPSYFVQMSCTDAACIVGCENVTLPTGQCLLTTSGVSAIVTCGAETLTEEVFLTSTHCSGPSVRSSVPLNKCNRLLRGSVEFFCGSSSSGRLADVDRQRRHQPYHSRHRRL
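Z-FR-AMC hydrolysis (2 uM substrate) by cruzain (1.5 nM) monitored kinetically at ex 360/em 450 nm after 15 min room-temperature compound exposure; 0.01% Triton X-100, pH 5.5, 5 mM DTT.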
RE007 growth inh: less growth of the S. pombe RE007 Vpr strain | Potency, µM (series often up to 92.2 µM), for inactives: top-dose activity change, negative = less growth | 360,000 tested, 0.21% active | AID 651644 | S. pombe RE007 Vpr strain, BacTiter-Glo ATP luminescence, 24 h; control for the full effect not named in the record; active = well fitted falling curve with a large enough effect; inconclusive = small, poorly fitted or top-dose-only effect; inactive = no such curve, though single readings can be large or run the other way;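 also: % is scaled to controls: 0 for no effect and ±100 for the full control effect; nearly all actives have a fitted effect of over 50% in size; the assay follows cell death caused by Vpr and the record does not say whether a fall means rescue or toxicity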
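Fission yeast RE007 carrying one integrated HIV-1 vpr copy, seeded at OD 0.01 in PMG+AL medium with 23 nL pinned compound. Grown 24 h at 30 degrees; viability read by BacTiter-Glo luminescence after 5 min.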
NS1 function inh: inhibitors of influenza NS1 protein function. S. cerevisiae slowed by influenza A NS1, growth recovery by OD600. Potency, µM (titrated, usually from 46.1 µM), inactives show at the highest dose activity, positive = more growth. 270,000 tested, 0.4% active. AID 2326; also: actives are rising curves; nearly all actives have a fitted effect of over 50% in size
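Read-out: OD600 growth recovery of NS1-expressing budding yeast. Cells grown overnight at 30C in -URA glucose medium, washed, resuspended and diluted 1:100 in 2% galactose assay medium, pH 6.0. Same strain lacking NS1 served as positive control.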
SARS PLP yeast: inhibitors of SARS-CoV papain-like protease in yeast; S. cerevisiae expressing SARS-CoV PLpro, growth rescue; control for the full effect not named in the record; Potency, µM (highest dose often 32.9 µM), for the others: at the top dose activity, positive = growth rescue; 330,000 tested, 0.19% active; AID 485353; also: 0% is about no effect; nearly all actives have a fitted effect of over 55% in size; growth read by luminescence after 48 h
Cruzain noTriton: blocks cruzain activity in detergent-free assay. Potency, µM, for inactives: max response, negative = inhibition, usual class: inhibitors. 200,000 tested, 2.3% active. AID 1476. P25779. purified cruzain, Z-FR-AMC fluorescence, no detergent; active = well fitted curve in the direction sought with a large enough effect; inconclusive = small, poorly fitted or top-dose-only effect, or another doubt; inactive = no such curve, though single readings can be large; an effect the other way counts as inactive or inconclusive;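 also: plate controls were enzyme without inhibitor for no effect and buffer without enzyme for full effect; nearly all actives have a fitted effect of over 40% in size; top concentration of the series not given in the record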
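Detergent-free condition (0.00005% Triton X-100) in acetate buffer pH 5.5 with DTT. 1.5 nM enzyme and compound were pre-mixed 15 min, then 2 uM Z-FR-AMC substrate added; reaction progress from fluorescence change between first and third reads (60 s).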
Lassa entry inh: inhibitors of Lassa virus binding or cell entry; Lassa virus pseudotype entry inhibition, cell reporter; control for the full effect not named in the record; Potency, µM (titrated, usually from 37.9 µM), for the others: at the top dose activity change, negative = inhibition, most hits filed as inhibitors; AID 540256; 300,000 tested, 1.2% active; active means well fitted inhibition curve with a large enough effect; inconclusive means small, poorly fitted or top-dose-only effect, or effect the other way; inactive means flat fitted curve, though single readings scatter; tested in HEK293 cells; also: % is scaled to controls: 0 for no effect and ±100 for the full control effect; nearly all actives have a fitted effect of over 50% in size; luciferase read-out
* marks the source's active call; other numbers are inactive results; ? = inconclusive; . = not tested or not shown; & = joins results of further samples; [ ] = remark or other dose. Unless noted, calls follow the shape of the dose curve; as a rule, active means well fitted rising curve with a large enough effect; inconclusive means small, poorly fitted or top-dose-only effect; inactive means no such curve, though single readings can be large or run the other way. Potency is read from the fitted curve at half-maximal effect.

SMILES	StopGo reporter	Marburg entry inh	Cruzain Triton	RE007 growth inh	NS1 function inh	SARS PLP yeast	Cruzain noTriton	Lassa entry inh
O=C1C2CCCCN2C(=O)N1CCN1CCN(c2ccc(F)cc2)CC1 (stereo unspecified)	-8%	-12%[46.1 µM]	.	-2%	.	.	.	-8%[46.1 µM]
O=C(Nc1cccc(S(=O)(=O)NC2=NCCCCC2)c1)c1ccc(Cl)cc1	?	?	.	5%	.	-14%	.	?
CCOC(=O)Cc1csc(NC(=O)COc2ccc(N(C)S(=O)(=O)c3cccs3)cc2)n1	25µM*	?	2.2%	-7%	4%	3%	0%	-28%
COc1ccc(CNC(=O)CS(=O)Cc2nc(-c3ccc(C)cc3)oc2C)cc1 (stereo unspecified)	0%	.	-12%	6%	4%	4%	16%	.
O=c1n(-c2cccc(Cl)c2)c(=O)n2n1CCC2	.	-10%	-0.4%	5%	?	0%	25%	6%
Cc1ccc(C)c(N2CCN(C(=O)c3ccc(CS(=O)Cc4ccc(Cl)cc4)o3)CC2)c1 (stereo unspecified)	?	?	.	-1%	17%	-10%	.	?
N#CCCN(C(=O)COC(=O)c1nc(Cl)ccc1Cl)c1ccccc1	-6%	18%	.	18%	.	-1%	.	?
CNc1oc(-c2cccc3ccccc23)nc1C#N	21%	2%	-11%	0%	-15%	-2%	0%	?
CCNc1c([N+](=O)[O-])ncn1C	3%	?	-5.8%	-10%	3%	4%	5%	8%
O=C(NCC1CCCO1)c1c(O)c2c([nH]c1=O)CCCC2 (stereo unspecified)	.	19%	4.8%	0%	-3%	-7%	1%	?
CCN1CCN(c2ccc(S(=O)(=O)N3CCOCC3)cc2NC(=O)C(C)Oc2ccc(Cl)cc2)CC1 (stereo unspecified)	16%	?	.	29%	.	3%	.	9%
CC(C)N(C)C1CCN(S(=O)(=O)c2ccc3[nH]c(=O)ccc3c2)CC1	-15%	.	-0.3%	.	.	.	-11%	5%[46.1 µM]
CCCC(=O)c1cc2c(cc1NC(=O)c1ccccc1F)OCCO2	-17%&2%	21%&21%[46.1 µM]	0.8%	-7%	.	-2%	-1%	9%&-10%[46.1 µM]
COc1cccc2cc(C(=O)NC(C)C3CCCO3)c(=O)oc12 (stereo unspecified)	53%[activator]	7%	-1.0%	-3%	0%	-1%	-2%	?
CCCC1N2CC3([N+](=O)[O-])CN1CC([N+](=O)[O-])(C2)C3(C)C (stereo unspecified)	-19%	?	2.8%	7%	?	19%	-1%	6%
COc1ccc(Nc2ccc([N+](=O)[O-])cn2)cn1	0%	.	.	6%	-33%	-4%	.	.
CC1CCc2c(nc3ncnn3c2Nc2ccc(OC(F)(F)F)cc2)C1 (stereo unspecified)	?	?	-3.5%	20%	-11%	12%	-10%	?
Cc1cc(C)c(C(=O)N2CCCC(C(=O)c3cc(F)ccc3F)C2)o1 (stereo unspecified)	12%	.	.	0%	2%	0%	.	.
O=C(NCC(c1cccnc1)N1CCc2ccccc2C1)C(=O)Nc1ccc(Cl)cc1 (stereo unspecified)	?	.	-0.2%	.	.	.	-1%	13%[46.1 µM]
CN1/C(=C/c2cc[n+](C)c3ccccc23)C=Cc2ccccc21	14µM*	4µM*	.	10µM*	.	-3%	.	?
CC(NC(=O)Nc1cc(Cl)ccc1Cl)c1c(-n2cccc2)sc2c1CCCC2 (stereo unspecified)	-9%	-6%[46.1 µM]	-3.8%	.	.	.	1%	-3%[46.1 µM]
Oc1ccccc1C1=Nc2ncnn2C(c2ccccc2)C1 (stereo unspecified)	-15%	-1%	-1.1%	2%	17%	4%	-12%	?
c1ccc(Nc2ccc3ccccc3c2)cc1	34%[activator]	.	-4.3%	?	.	.	-6%	.
COc1ccccc1CN1CCC(CNC(=O)c2cnn(-c3cccc(Cl)c3)c2C2CCN(C(=O)OC(C)(C)C)CC2)CC1	-24%	.	-0.8%	.	.	.	4%	?
N#Cc1cccn1-c1nccs1	3%	10%[46.1 µM]	.	-10%	.	1%	.	11%
COc1cc([N+](=O)[O-])ccc1NC(=O)CN(C)C	.	7%	1.8%	-7%	-14%	3%	-8%	-2%
CC(=O)NN1C(=O)/C(=C/c2ccc(C(C)C)cc2)SC1=S	7%	?	-11%	-9%	10%	-18%	?	?
O=C(COC(=O)/C=C/c1ccccc1[N+](=O)[O-])NC(=O)NC1CCCC1	-9%	?	.	2%	.	-3%	.	10%
O=C(O)c1ccc(-c2nc3ccccc3[nH]2)cc1	-3%	7%	-3.2%	3%	4%	-4%	-9%	-2%
CCOC(=O)N1CCN(C(=O)CSc2ccccc2)CC1	12%	10%	6.9%	0%	-10%	9%	-3%	5%
COc1cc(OC)cc(C(=O)Nc2cc3c(cc2N2CCCC2)n(C)c(=O)c(=O)n3C)c1	-13%	.	-11%	.	.	.	-10%	16%[46.1 µM]
Cc1ccc(S(=O)(=O)N2CCOCC2)cc1C(=O)OCC(=O)N(Cc1ccccc1)C(C)C	?	?	.	-8%	.	5%	.	-17%
Cc1cccc(Nc2nc(Nc3cccc(C)c3)nc(N3CCOCC3)n2)c1	-21%	?	-9.4%	.	.	.	-2%	?
CCc1cc2c(cc3c(=O)n(CC(=O)NCCc4ccc(OC)c(OC)c4)ncn32)s1	-5%	19%[46.1 µM]	-1.9%	.	.	.	-1%	.
CC(=O)c1ccc(NC(=O)CN(C)S(=O)(=O)c2cccc3nsnc23)cc1	11%	11%[46.1 µM]	-4.3%	.	.	.	-1%	27%[46.1 µM]
CCOc1c(Br)cc(/C=N\NC(=O)c2ccccc2)cc1OC	-28%	?	-5.0%	2%	-32%	-6%	-4%	12%
CC1CC(C)(C)CC2(C1)NC(=O)N(CC(=O)Nc1ccc(N3CCCCC3)cc1)C2=O (stereo unspecified)	-22%	-2%	.	-9%	13%	-9%	.	-8%
COc1ccc(C)cc1NS(=O)(=O)c1c(C(=O)N2CCCCCC2)c(C)n(C)c1C	61%[activator]	.	1.0%	.	.	.	?	6%[46.1 µM]
Cc1cc(C)cc(NC(=O)N2CCC(C(=O)c3ccc(F)cc3)CC2)c1	-19%	?	.	-3%	.	-11%	.	?
Cc1cc(C)cc(C(=O)N(Cc2nc(-c3ccc(Cl)cc3)no2)C(C)C)c1	-16%	0%[46.1 µM]	-4.6%	.	.	.	-2%	?
Cc1ccc(/C=N/NC(=O)C2CC(=O)N(c3ccccc3)C2)s1 (stereo unspecified)	13%	4%	-7.9%	-15%	-10%	2%	8%	?
Cc1ccc(-c2noc(CNC(=O)c3ccc(Br)o3)n2)cc1	-10%	3%[46.1 µM]	-10.0%	.	.	.	-2%	-9%[46.1 µM]
O=c1oc(Nc2ccc(F)cc2)nc2ccccc12	-20%	-12%	1.6%	?	-14%	-1%	-6%	-20%
S=c1[nH]nc(C2CCCCC2)n1/N=C/c1ccc(Cl)cc1	-29%	?	.	-2%	6%	0%	.	?
O=C(O)c1ccc(N2C(=O)CC(N3CCN(c4cccc(Cl)c4)CC3)C2=O)cc1 (stereo unspecified)	0%	.	.	12%	5%	5%	.	.
O=C(CSc1ccc2nnc(-c3ccncc3)n2n1)N1CCc2ccccc21	.	0%	-8.3%	.	-3%	6%	-3%	.
C=CCn1c(SCC(=O)Nc2nncs2)nnc1-c1ccco1	15%	-5%[46.1 µM]	.	11%	-1%	-1%	.	-2%[46.1 µM]
Cc1ccc(-n2c(=O)c3c(cnn3C)n(CC(=O)Nc3cc(C)ccc3C)c2=O)cc1	0%	3%[46.1 µM]	0.4%	.	.	.	4%	-20%[46.1 µM]
CCOc1ccc(NC(=O)CSc2nc3c(c(=O)n2-c2ccccc2OC)SCC3)cc1	-20%	-8%	0.2%	-1%	?	4%	-3%	.
C=CCc1c(OC)ccc2ccc(=O)oc12	-9%	29%	-4.1%	-19%	-13%	2%	7%	-1%
Later entries:
SMILES	StopGo reporter	Marburg entry inh	Cruzain Triton	RE007 growth inh	NS1 function inh	SARS PLP yeast	Cruzain noTriton	Lassa entry inh
CCc1ccc(-n2nnc(-c3nsc(NC(=O)c4ccccc4Cl)n3)c2C)cc1	-15%	-21%[46.1 µM]	-7.0%	.	.	.	?	-3%[46.1 µM]
C=CCOc1ccc(C(=O)n2cc(C(=O)OC)c3ccccc32)cc1	-8%	15%	.	-5%	11%	-6%	.	23%
CN1CCC(N(C)C(=O)c2cc(S(=O)(=O)N3CCOCC3)ccc2Cl)CC1	-19%	?	.	-1%	.	-6%	.	3%
COc1ccccc1NC(=O)CSC1=Nc2ccccc2C2=NC(CCC(=O)NCc3ccco3)C(=O)N12 (stereo unspecified)	-13%	.	-0.4%	.	.	.	-2%	?
COc1ccc(NC(=S)NC(=O)Cc2ccccc2)c(OC)c1	24%	7%[46.1 µM]	.	22%	-8%	8%	.	-3%[46.1 µM]
Cc1cc(SCC(=O)NCCN2C(=O)CSC2=O)nc2ccccc12	-15%	?	0.7%	13%	15%	8%	-1%	-3%
CCN1C/C(=C\c2cccc([N+](=O)[O-])c2)C(=O)/C(=C/c2cccc([N+](=O)[O-])c2)C1	1.1µM*	?	-5.8%	?	-28%	-27%	3%	2.5µM*
Cc1ccc(C)c(S(=O)(=O)Nc2ccc(O)c(Sc3ncn[nH]3)c2)c1	9%	.	.	-1%	6%	0%	.	.
CCCOc1ccc(C(C)=O)cc1CSCCC#N	-9%	-1%&-1%	-3.9%	4%	-10%	-27%	-7%	-13%
Cc1ccccc1CN1C(=O)Nc2ccccc2C(=O)N1C(C)(C)C	0%	?	0.7%	27%	-3%	10%	7%	5%
O=C(CCC(=O)OCc1ccc(C(=O)Oc2ccccc2)cc1)Nc1cccc2ccccc12	-4%	0%	1.4%	-3%	12%	1%	-3%	17%
O=S(=O)(NCCOc1ccc(F)cc1)c1ccc2c(c1)OCCO2	32%[activator]	23%	-1.3%	13%	-9%	?	6%	0%
O=C1NC(=O)C2(CCCCC2C2CCCCC2)N1 (stereo unspecified)	-19%	5%	.	-16%	.	.	.	3%
